# TRPML1 inh: blocks the human TRPML1 channel; Q9GZU1; TRPML1-inducible cells, Ca2+ dye fluorescence, FDSS; hits give low values; inhibition of EC80 agonist-evoked calcium signal; activity change, negative = inhibition, % (concentration not given with the values); actives 0.02% (n = 390,000); AID 624415; in the data active means activity change below about -50%; inconclusive means about -30% to -50%; inactive means above about -30%;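 note: stimulus is agonist 54-4 at its EC80 concentration; % is set by controls: 0 for no effect and ±100 for the full control effect; compound concentration not given in the record; the text of the record puts the active cut at -80%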
# Target sequence (Q9GZU1 whole entry, looked up): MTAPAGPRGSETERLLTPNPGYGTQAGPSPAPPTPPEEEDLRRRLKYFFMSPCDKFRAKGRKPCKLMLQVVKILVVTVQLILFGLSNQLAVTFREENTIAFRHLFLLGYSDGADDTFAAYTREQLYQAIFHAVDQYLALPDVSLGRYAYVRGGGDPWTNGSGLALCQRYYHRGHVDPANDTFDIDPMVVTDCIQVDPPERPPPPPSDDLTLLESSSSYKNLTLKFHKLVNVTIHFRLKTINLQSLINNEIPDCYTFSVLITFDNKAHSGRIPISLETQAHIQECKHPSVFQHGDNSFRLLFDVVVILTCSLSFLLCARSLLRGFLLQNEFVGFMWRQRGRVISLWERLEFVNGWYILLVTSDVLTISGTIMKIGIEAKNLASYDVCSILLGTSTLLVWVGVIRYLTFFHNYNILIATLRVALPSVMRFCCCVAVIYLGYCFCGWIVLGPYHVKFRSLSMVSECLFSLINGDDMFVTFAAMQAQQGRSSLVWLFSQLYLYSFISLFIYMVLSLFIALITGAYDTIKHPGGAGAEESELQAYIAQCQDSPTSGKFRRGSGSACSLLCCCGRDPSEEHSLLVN
#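 TRPML1-DL cells, Tet-induced overnight (~16 h, 37 °C) at 1,500 cells/well, were loaded with Ca8 no-wash dye plus quencher for 45-90 min at room temperature. Compounds were pinned during FDSS kinetic reading; agonist 54-4 at EC80 (4 uM final) then added.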
# gsp antag: antagonists of gsp mutant (McCune-Albright syndrome); gsp-mutant cells, cAMP HTRF, 30 min; control for the full effect not named in the record; Potency, µM (top dose mostly 76.9 µM), for inactives: at the top dose activity change, negative = inhibition, actives largely listed as inhibitors; actives 0.4% (n = 340,000); active = falling curve of any shape with a large fitted effect; inconclusive = falling curve, mostly with a smaller effect; inactive = flat or rising curve; cell line not stated here;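 note: intracellular cAMP measured with PDE inhibitor Ro 20-1724 present during compound exposure; potency is the fitted concentration of half-maximal effect; % is set by controls: 0 for no effect and ±100 for the full control effect; nearly all actives have a fitted effect of over 65% in size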
#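 Cells, 2000/well, grown 16–24 h in DMEM 10% FBS with 0.5 mg/ml G418, then compounds plus […] (300 uM addition stock), 30 min at 37C. cAMP read by HTRF (cAMP-d2 and anti-cAMP antibody-K in lysis buffer) after 30 min RT.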
# TRPML1 agonist: human mucolipin-1 channel agonism; Q9GZU1; TRPML1-expressing cells, Ca2+ dye fluorescence, FDSS; host cell line not named in the record; reference of the full effect not given here; activation, % (test concentration not listed); actives 0.12% (n = 410,000); in the data active = activation above about 50%; inconclusive = about 30% to 50%; inactive = below about 30%; note: 0% is about no effect; the text of the record puts the active cut at 80%
#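 TRPML1-DL cells, Tet-induced overnight (~16 h, 37 degrees C), loaded 45-90 min at room temperature with Ca8 no-wash calcium dye plus quencher. FDSS fluorescence: 10 s baseline, compound pin-transfer, 110 s agonist read, then EC80 54-4 (4uM final) and 110 s antagonist read.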
# gsp agonist: gsp mutant agonism | Potency, µM (series often up to 76.9 µM), without a hit: top-dose activation (cAMP increase), hits mostly activators | AID 624287 | actives 0.13% (n = 340,000) | gsp mutant cells, cAMP HTRF, 30 min; control for the full effect not named in the record; active = well fitted activation curve with a large enough effect; inconclusive = small, poorly fitted or top-dose-only effect, or another doubt; inactive = no such curve, though single readings can be large or run the other way; cell line not stated here;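 note: phosphodiesterase inhibitor Ro 20-1724 added with compounds to block cAMP breakdown; potency is the fitted concentration of half-maximal effect; nearly all actives have a fitted effect of over 60% in size; about a fifth of the inactives were tested at one dose only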
#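 Cells in DMEM/10% FBS with G418 were pretreated with compounds in DMSO plus […] (300 uM stock) for 30 min at 37C. cAMP was measured by HTRF (cAMP-d2 plus anti-cAMP antibody-K) after 30 min at room temperature.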
# ClpP mod: qHTS Assay for Activators of ClpP. Potency, µM (doses to about 57.5 µM), for inactives: at the top dose activity change, negative = active. purified B. subtilis ClpP, FRET peptide cleavage, 20 min. ATP-dependent Clp protease proteolytic subunit (Bacillus subtilis (strain 168)), P80244. actives 1.9% (n = 340,000). AID 651965, 2013; active = well fitted falling curve with a large enough effect; inconclusive = small, poorly fitted or top-dose-only effect; inactive = no such curve, though single readings can be large or run the other way; note: potency is the fitted concentration of half-maximal effect; the source files actives as falling curves though it sought activators and does not explain the sign; nearly all actives have a fitted effect of over 65% in size; many hits overshoot -100%
# Target sequence (P80244 whole entry, looked up): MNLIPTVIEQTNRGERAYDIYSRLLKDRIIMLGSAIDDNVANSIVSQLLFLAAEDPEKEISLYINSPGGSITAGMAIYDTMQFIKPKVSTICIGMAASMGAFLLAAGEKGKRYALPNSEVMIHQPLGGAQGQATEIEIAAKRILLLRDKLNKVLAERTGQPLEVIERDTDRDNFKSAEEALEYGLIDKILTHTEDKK
#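 Purified B. subtilis ClpP, 10 microg/mL final in Tris/HCl pH8 with KCl, BSA, glycerol and Tween-20, cleaved an Abz/nitrotyrosine-quenched decapeptide. Fluorescence (ex 320, em 430) was read at 0 and 20 min at room temperature. Delta was normalized to 5.8 microM ADEP and DMSO/no-enzyme controls.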
# Menin MLL FP FL: inhibitors of human menin-MLL interaction, wild-type MLL peptide; Fluorescence polarization, fluorescein-MLL peptide displacement from menin; FP activity change, % at 61.4 µM; 290,000 tested, under 10 active; AID 1766; inconclusive = falling polarisation curve, or a change in total fluorescence; inactive = total fluorescence flat and polarisation flat or rising; no compound was filed as active; the % refers to the polarisation; negative = inhibition;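 note: % of control where 0% means no effect; inhibitors lower the polarisation; unlabelled MLL peptide was the positive control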
# Numbers without * were called inactive; ? = inconclusive; · = not tested or not shown; [ ] = remark or other dose.
(1) CC1OC2(OC1C)C(=O)Nc1ccccc12 (centres undefined)
(2) COc1ccc(S(=O)(=O)NCc2ccccn2)cc1NC(=O)c1ccc(Cl)cc1
(3) Cc1ccc(Cl)cc1Nc1sc(C(=O)c2ccc(F)cc2)c(N)c1S(C)(=O)=O
(4) CC1CCN(CCCNC(=O)c2ccc(CS(=O)(=O)Cc3ccccc3F)o2)CC1
(5) O=P(CCO)(c1ccccc1)c1ccccc1
(6) CCOc1c(Br)cc(CNCc2cccs2)cc1OC
(7) CCCn1c2c(c(=N)c3c1CCC3)CCCC2
(8) COc1cc(C(=O)COC(=O)C2CCCCC2)cc(OC)c1OC
(9) Cc1cnc(C(=O)OCC(=O)Nc2ccccc2[N+](=O)[O-])cn1
(10) CN(C)C(=S)Nc1ccc(Cc2ccncc2)cc1
assay / entry,1,2,3,4,5,6,7,8,9,10
TRPML1 inh,-13.9,-29.5,-20.6,6.0,1.8,1.7,-9.5,-0.6,-3.3,31.0
gsp antag,8.1%,-7.5%,·,9.4%,-14.8%,-11.4%,5.5%,0.7%,-2.4%,9.1%
TRPML1 agonist,1.3,1.0,0.5,-1.2,0.0,0.7,0.5,0.3,-0.4,-0.4
gsp agonist,-2.6%,-34.5%[15.4 µM],·,-11.8%,0.9%[15.4 µM],-7.4%[15.4 µM],10.9%,0.3%[15.4 µM],7.7%,-30.3%[inhibitor]
ClpP mod,-2.5%,·,-5.2%,0.6%,·,1.3%,-2.5%,-2.9%,·,-0.2%
Menin MLL FP FL,-0.8,·,·,0.1,-0.9,1.1,-1.1,·,·,0.7

(11) O=C(CSc1ccccc1)NCc1ccc(F)cc1
(12) COc1ccc2[nH]c3c(c2c1)CCN1C(=O)N([C@@H](C)C(=O)NC2CCCCC2C)C(=O)[C@]31C (some centres undefined)
(13) O=C(NCCc1ccccc1F)C1CCCN1S(=O)(=O)c1ccccc1 (centres undefined)
(14) Cc1ccc(C)c(Cn2nnc(C(=O)Nc3ccc4c(c3)OCCO4)c2N)c1
(15) O=[N+]([O-])c1ccc2c(c1)-c1ccccc1C2=NO
(16) O=C(Nc1ccc(N2CCCC2)c(Cl)c1)c1ccc2c(c1)OCCO2
(17) N/C(=N\OC(=O)c1cccc2ccccc12)c1ccncc1
(18) CC(NCC(O)COc1ccc(S(=O)(=O)N2CCOCC2)cc1)c1ccccc1 (centres undefined)
(19) CN=C1NN=C(c2cc(C)n(-c3ccc(Cl)cc3)c2C)CS1
(20) O=C(Nc1c[nH]c(=O)[nH]c1=O)c1ccccc1Br
assay / entry,11,12,13,14,15,16,17,18,19,20
TRPML1 inh,-6.3,-11.2,-13.9,5.1,-10.1,-9.7,21.5,12.7,7.0,-3.1
gsp antag,16.2%,0.4%,-1.8%,-6.0%,-4.5%,-5.1%,7.0%,8.0%,1.9%,7.6%
TRPML1 agonist,0.7,0.5,0.1,10.8,1.8,0.2,-0.2,0.2,-0.5,0.3
gsp agonist,-17.7%[15.4 µM],-29.6%,8.0%,-2.1%,-28.0%,3.6%[15.4 µM],-0.7%,-11.1%[15.4 µM],5.5%,-1.3%
ClpP mod,·,-9.5%,0.5%,-2.0%,1.8%,1.4%,-9.3%,·,·,0.0%
Menin MLL FP FL,2.8,15.3,-2.7,·,·,·,1.1,-1.1,0.3,-0.9

# Shown with two lines to a compound: entries from further up.
# Values run as follows: TRPML1 inh	gsp antag	TRPML1 agonist	gsp agonist	ClpP mod	Menin MLL FP FL
12: COc1ccc2[nH]c3c(c2c1)CCN1C(=O)N([C@@H](C)C(=O)NC2CCCCC2C)C(=O)[C@]31C (some centres undefined)
 : -11.2	0.4%	0.5	-29.6%	-9.5%	15.3
13: O=C(NCCc1ccccc1F)C1CCCN1S(=O)(=O)c1ccccc1 (centres undefined)
 : -13.9	-1.8%	0.1	8.0%	0.5%	-2.7

# Next section.
(21) O=C(NCCc1c[nH]c2ccccc12)C1CCN(S(=O)(=O)c2ccccc2)CC1
(22) Cc1ccc(C)n1-c1nnc(N2CCC(C(=O)N3CCN(C)CC3)CC2)s1
(23) Cc1cccc(N(CC(=O)NCc2ccccc2)C(=O)CCC(=O)Nc2nccs2)c1
(24) CCOc1ccc(N2CC(c3nc4ccccc4n3CCCCOc3ccc(OC)cc3)CC2=O)cc1 (centres undefined)
(25) Cc1nn(C(=O)C2CC2)c(C)c1Sc1ccc(Cl)cc1
(26) O=C(O)C1Nc2c(Cl)cc(Cl)c(Cl)c2C2C=CCC12 (centres undefined)
(27) CN1CC(=O)N2C(c3ccc(Cl)cc3)c3[nH]c4ccccc4c3C[C@H]2C1=O (some centres undefined)
(28) Cc1nn(C)c(C(=O)Nc2ccn(C34CC5CC(CC(C5)C3)C4)n2)c1[N+](=O)[O-]
(29) Cc1[nH]n(-c2ccccc2)c(=S)c1C=Nc1ccc([N+](=O)[O-])cc1
(30) CC(C)OCCCNC(=O)c1ccc2c(=O)n(CCc3ccccc3)c(=O)[nH]c2c1
assay / entry,21,22,23,24,25,26,27,28,29,30
TRPML1 inh,15.5,29.3,5.1,25.6,11.8,·,3.3,-17.5,4.8,30.4
gsp antag,-24.4%,-3.0%,1.8%,·,4.8%,2.4%,-6.5%,-4.9%,-1.3%,·
TRPML1 agonist,-0.1,0.3,0.7,2.3,0.8,·,5.2,2.9,-0.5,-0.8
gsp agonist,-39.9%[inhibitor],?,-1.5%[15.4 µM],·,6.0%,17.8%,4.1%,0.0%,1.5%,·
ClpP mod,-0.1%,2.2%,·,-5.8%,0.7%,-2.9%,0.5%,-2.5%,0.8%,-28.8%
Menin MLL FP FL,-5.5,-1.5,·,·,1.2,·,-1.1,5.9,4.6,·

# Reprinted at random: 4 entries already listed
(7) CCCn1c2c(c(=N)c3c1CCC3)CCCC2
(29) Cc1[nH]n(-c2ccccc2)c(=S)c1C=Nc1ccc([N+](=O)[O-])cc1
(20) O=C(Nc1c[nH]c(=O)[nH]c1=O)c1ccccc1Br
(9) Cc1cnc(C(=O)OCC(=O)Nc2ccccc2[N+](=O)[O-])cn1
assay / entry,7,29,20,9
TRPML1 inh,-9.5,4.8,-3.1,-3.3
gsp antag,5.5%,-1.3%,7.6%,-2.4%
TRPML1 agonist,0.5,-0.5,0.3,-0.4
gsp agonist,10.9%,1.5%,-1.3%,7.7%
ClpP mod,-2.5%,0.8%,0.0%,·
Menin MLL FP FL,-1.1,4.6,-0.9,·

# (cont.)
(31) Cc1ccc(CN(Cc2cccn2-c2nnc(N3CCCC3=O)s2)C(=O)Nc2ccccc2C(F)(F)F)cc1
(32) CC(CC(=O)O)CC(=O)N1CCN(S(=O)(=O)c2cccs2)CC1 (centres undefined)
(33) CC(=O)c1sc(NC(=O)CCS(=O)(=O)c2ccc(F)cc2)nc1C
(34) CN(C)c1ccc(CNc2nc(-c3ccco3)nn2S(=O)(=O)c2ccc3ccccc3c2)cc1
(35) CN(CCc1ccccc1)Cc1nc(-c2cnccn2)no1
(36) NC(=O)c1c(-c2ccccc2)oc2ccc(O)cc12
(37) COc1ccccc1NC(=O)CCSc1nc(C)cc(C)n1
(38) COC(=O)c1cc2oc3ccccc3c2n1Cc1nc(-c2cccc(Cl)c2)oc1C
(39) Cc1ccc(-n2c(SCC(=O)O)nc3sc4c(c3c2=O)C(C)CCC4)cc1 (centres undefined)
(40) CC(C)(C)NC(=O)c1cccnc1Sc1ccccc1
assay / entry,31,32,33,34,35,36,37,38,39,40
TRPML1 inh,-10.6,-18.1,6.3,-16.3,8.4,-1.9,-1.8,19.8,·,7.6
gsp antag,·,2.4%,·,·,-0.8%,-3.4%,-1.6%,·,-27.1%,5.6%
TRPML1 agonist,2.3,0.0,-0.1,0.4,0.6,-0.6,0.4,-0.8,·,0.2
gsp agonist,·,?,15.9%,·,5.0%[15.4 µM],-43.1%[inhibitor],-2.3%[15.4 µM],·,?,35.5%
ClpP mod,-10.1%,-2.5%,-10.4%,1.8%,-0.9%,-3.8%,-19.7%,1.6%,-9.5%,·
Menin MLL FP FL,·,·,·,·,-8.5,2.9,0.9,·,-6.5,3.4

(41) CC(Sc1nnc(C(C)Oc2ccccc2F)o1)C(=O)NCc1ccc2c(c1)OCO2 (centres undefined)
(42) CCCn1c(SCC(=O)Nc2ccccc2CC)nnc1C(C)C
(43) CCCCn1c(N)c(N(CC(C)C)C(=O)CSc2nn(-c3ccc(F)cc3)c(=S)s2)c(=O)[nH]c1=O
(44) COc1cc(C(=O)N[C@H](C(=O)OCC(=O)NC2CCCCCC2)C(C)C)cc(OC)c1OC
(45) C[n+]1ccc(/C=N/Nc2nc(Cl)c(C#N)c(Cl)c2Cl)cc1
(46) Cc1cc(C)n2nc(SCC(=O)Nc3c(C)n(C)n(-c4ccccc4)c3=O)nc2n1
(47) CSc1ncc(CN2CCN(C(C)C)C(CCO)C2)cn1 (centres undefined)
(48) CSCCC(NC(=O)c1ccco1)c1nc2ccccc2[nH]1 (centres undefined)
(49) CC1CCCC(C)N1C(=O)c1cc(-c2cccs2)on1 (centres undefined)
(50) CCc1ccc(NC(=S)N(CCOC)C2CCN(C(C)=O)CC2)cc1
(51) CC1=C(C(=O)OCc2ccccc2)C(c2ccc(Br)cc2)NC(=O)N1CCCCCC(=O)O (centres undefined)
assay / entry,41,42,43,44,45,46,47,48,49,50,51
TRPML1 inh,2.2,-8.3,-8.3,-4.2,-6.6,3.4,5.6,-2.3,5.0,?,26.6
gsp antag,-12.3%,11.9%,-14.3%,-11.5%,-6.7%,5.6%,6.4%,11.2%,0.2%,9.5%,-26.4%
TRPML1 agonist,1.1,-1.0,-0.5,1.0,10.4,-1.0,-0.5,0.8,0.7,0.8,0.1
gsp agonist,2.7%,-36.8%[inhibitor],6.0%,-35.5%[inhibitor],-24.4%,19.3%,12.2%,-8.9%,-3.4%,-6.5%,·
ClpP mod,0.0%,-3.1%,-1.2%,-2.1%,-2.9%,-3.1%,-1.7%,2.2%,-3.4%,-2.1%,1.9%
Menin MLL FP FL,·,3.5,·,·,18.2,1.2,-3.2,·,-1.7,1.2,·

# High-throughput results: PubChem, National Center for Advancing Translational Sciences (NCATS)
